Screening data: PubChem, National Center for Advancing Translational Sciences (NCATS)
AmpC inh no det = blocks E. coli AmpC beta-lactamase in absence of detergent. P00811. AmpC nitrocefin hydrolysis, absorbance 480 nm, no detergent; potencies from a single point are estimates. Potency, µM (doses to about 28.7 µM), inactives show at the top dose activity change, negative = inhibition. 71,000 tested, 1.8% active; active = falling curve, for most hits resting on a single point; inconclusive = weak or doubtful change; inactive = flat or rising curve; note: % of control where 0% means no effect; a quarter of the inactives give rising signals
Target sequence (P00811 whole entry, looked up): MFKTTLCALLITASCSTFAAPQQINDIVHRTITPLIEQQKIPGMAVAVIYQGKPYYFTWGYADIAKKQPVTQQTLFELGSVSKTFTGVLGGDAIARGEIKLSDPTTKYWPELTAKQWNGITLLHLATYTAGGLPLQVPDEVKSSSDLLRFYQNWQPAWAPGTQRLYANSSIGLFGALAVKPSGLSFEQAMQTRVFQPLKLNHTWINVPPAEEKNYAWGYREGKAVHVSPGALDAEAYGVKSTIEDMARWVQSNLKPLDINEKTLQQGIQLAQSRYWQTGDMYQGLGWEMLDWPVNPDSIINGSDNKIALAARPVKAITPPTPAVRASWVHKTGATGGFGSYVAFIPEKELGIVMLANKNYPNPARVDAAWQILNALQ
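Enzyme, pH 7.0 phosphate. Compound titrations were pre-incubated with AmpC for 15 min at room temperature before nitrocefin (stock 800 uM) addition; product formation was recorded at 480 nm every 20 s for 4 min.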
An asterisk follows results filed as active; ? = inconclusive; & = joins results of further samples; [ ] = remark or other dose. Potency is the fitted concentration of half-maximal effect. Not all compounds are listed; the hit share may differ from the screen's.

Structure	AmpC inh no det
COC(=O)c1nnn(-c2nonc2N)c1CSc1ccccn1	81%
C=C(C)COc1ccc(-c2[nH]ncc2-c2ccccc2OC)c(O)c1	10%
Cc1ccc2cc(CN(Cc3ccco3)C(=O)NCc3ccccc3)c(=O)[nH]c2c1C	32%
Cc1nnc(SCCN2C(=O)c3ccccc3C2=O)[nH]c1=O	1%
Cc1cc(C(F)F)n2nc(C(=O)O)nc2n1	-6%
O=C(CSc1nc(-c2ccccc2Cl)ns1)NCc1ccco1	-18%
O=C(Nc1ccc(NC(=O)C2CC2)nc1)c1cccs1	-4%
CN=C(Nc1cc(C)nn1-c1ccccc1)c1ccccc1	-2%
Cc1ccc(N2CCN(C(=S)c3ccc(N(C)C)cc3)CC2)cc1	6%
O=C(NCCN1CCN(c2ccccc2F)CC1)C1CCCN(S(=O)(=O)c2cnc[nH]2)C1 (stereo not drawn)	4µM*[single pt active]
COc1ccccc1Nc1nc2ccccc2n1C	-2%
CC(NS(=O)(=O)c1ccc(Br)cc1)C(c1cccs1)N1CCN(C)CC1 (stereo not drawn)	31%
CCN1CCN(c2oc(-c3ccc(OC)cc3)nc2C#N)CC1	36%
O=C(Cn1c(CO)nc2ccccc21)Nc1cc(C(F)(F)F)ccc1N1CCOCC1	138%
c1cncc(C(c2nnnn2C2CCCC2)N2CCN(Cc3ccc4c(c3)OCO4)CC2)c1 (stereo not drawn)	73%
CCCCCCN(CCCCCC)C(=O)Cc1c(-c2ccc(F)cc2)[nH]c2ccccc12	-2%&-14%
CCOC(=O)N1CCN(C(=O)Nc2ccc(Cl)cc2Cl)CC1	22%
O=c1c(-c2ccc(F)cc2)nc2cnc(N3CCOCC3)nc2n1CCc1ccccc1	4%
O=C(COC(=O)c1ccccc1C(=O)c1ccccc1)c1ccco1	4%
CC[C@H](c1ccc(O)cc1)[C@@H](CC)c1ccc(O)cc1	?
O=C(Cn1ncc2c1-c1ccccc1OC2)N1CCN(c2ccccn2)CC1	68%
Cc1nc2ccc(F)cc2cc1C(=O)NCC1CCCO1 (stereo not drawn)	-7%
COc1cc(=O)[nH]c(=O)n1C(=O)Cc1ccccc1	-1%
CC(C)(C)NS(=O)(=O)c1ccc(CCC(=O)NCc2ccco2)cc1	28%
CCOC(=O)N1CCC(NC(=O)c2cc3c(-c4cccc(OC)c4)nn(C)c3s2)CC1	84%
Nc1c(C(=O)NCCc2ccccc2)nnn1Cc1ccccc1	5%
CCC1=Nc2ccccc2-c2nnc(SC)nc2O1	-8%
O=C(Nc1ccc2c(c1)OC1(CCCC1)O2)C1CC1	-10%
Cc1onc(-c2c(F)cccc2Cl)c1C(=O)Nc1nc2c(s1)CCCC2	2%
O=C(Nc1ccc(-c2cn3ccsc3n2)cc1)c1ccc(F)c(S(=O)(=O)N2CCOCC2)c1	60%
CCOc1ccc(CNC(=O)C2CC(=O)N(C3CCCC3)C2)cc1OC (stereo not drawn)	17%
C=C[C@@]1(C)C=C2CC[C@@H]3[C@](C)(CCC[C@@]3(C)C(=O)O)[C@H]2CC1	-16%
COCCn1nnnc1C(c1cc2ccc(C)cc2[nH]c1=O)N(Cc1ccco1)Cc1cccs1 (stereo not drawn)	72%
O=C1c2ccccc2C(O)(c2ncc[nH]2)N1C1CCCCC1 (stereo not drawn)	3%
Cn1c(=O)c2c(nc(CN3CCN(C(=O)c4ccco4)CC3)n2Cc2ccccc2)n(C)c1=O	-2%
O=C(Nc1ccc2c(c1)OCCO2)c1ccc(Br)c(S(=O)(=O)N2CCOCC2)c1	27%
CCCCCCN=C(C)C1=C(O)C(C(=O)OC)C(C)(C)CC1=O (stereo not drawn)	57%
O=C1c2ccccc2C(=O)N1CCC(=O)N1CCc2ccccc21	1%
CC12CC(NC(=O)N1CCc1ccccc1)c1cc(Cl)ccc1O2 (stereo not drawn)	16%
Cc1sc2ncn(CCn3cnc4sc(C)c(C)c4c3=O)c(=O)c2c1C	82%
CC(C)(C)n1ncc2c(=O)n(Cc3ccc(Cl)cc3Cl)cnc21	33%
CCN1CCN(CCCNC(=O)C2c3ccccc3C(=O)N(C)C2c2ccc(OC)cc2)CC1 (stereo not drawn)	-10%
COC(=O)CSc1nc2ccccc2c(=O)n1C	0%
O=C(Nc1ccc2c(c1)oc1ccc(S(=O)(=O)N3CCCC3)cc12)C1CC1	-2%
O=C(COC(=O)c1cccc(S(=O)(=O)N2CCc3ccccc3C2)c1)NCc1ccco1	0%
CCCc1nc2oc3c(NCCOCCO)ncnc3c2c2c1COC(C)(C)C2	98%
Cc1cc(NC(=O)C2CC(c3cccc(Br)c3)=NO2)no1 (stereo not drawn)	-7%
O=C(NC1CCCCCC1)c1cccs1	-9%
CC(=O)CCc1ccc2oc(C(=O)O)c(C)c2c1	-9%
CC(C)C(NS(=O)(=O)c1cccs1)C(=O)N1CCc2ccccc2C1 (stereo not drawn)	5%
CCN(CC)S(=O)(=O)N1CCC(C(=O)NCC2COc3ccccc3O2)CC1 (stereo not drawn)	61%
O=C(Nc1ccc(N2CCN(Cc3ccccc3Cl)CC2)cc1)c1cccnc1	69%
COc1ccc(Cc2nn3c(-c4ccccc4Br)nnc3s2)cc1	12%
O=C1c2ccccc2C(=O)N1CCCCCc1nc(-c2ccccc2)no1	22%
C=C1N(CCCCCC(=O)O)C(=O)OC12CCCCC2	7%
N[C@@H](Cc1cc(Br)c(O)c(Br)c1)C(=O)O	2%[5.75 µM]
Cc1cc(C)n2nc3ccccc3c2n1	-14%
CN1CCN(c2nc(N3CCN(c4ccccc4)CC3)ncc2F)CC1	57%
O=C(CSc1nnc(C2CC2)n1Cc1ccccc1)c1ccc(S(=O)(=O)N2CCOCC2)cc1	134%
CCCOc1ccc(-c2nnc(-c3ccco3)o2)cc1	40%

Entries from the list above with bromine:
Structure	AmpC inh no det
CC(NS(=O)(=O)c1ccc(Br)cc1)C(c1cccs1)N1CCN(C)CC1 (stereo not drawn)	31%
O=C(Nc1ccc2c(c1)OCCO2)c1ccc(Br)c(S(=O)(=O)N2CCOCC2)c1	27%
Cc1cc(NC(=O)C2CC(c3cccc(Br)c3)=NO2)no1 (stereo not drawn)	-7%
COc1ccc(Cc2nn3c(-c4ccccc4Br)nnc3s2)cc1	12%
N[C@@H](Cc1cc(Br)c(O)c(Br)c1)C(=O)O	2%[5.75 µM]

Other results.
compound,AmpC inh no det
CN(Cc1ccco1)c1nc(-c2ccccc2Cl)nc2ccccc12,3%
CCOC(=O)c1ccc2ncc(C(=O)OCC)c(NCc3ccco3)c2c1,78%
Cn1c(=O)c2c(nc(N3CCc4ccccc4C3)n2Cc2ccccc2F)n(C)c1=O,101%
CCCS(=O)(=O)N1CCc2cc(OC)c(OC)cc2C1,4%
CN(C)CCCNc1oc(-c2ccccc2)nc1C#N,0%
CC(C)(C)c1cc(C(=O)N2CCc3ccccc32)ccn1,27%
O=C(NC1CCCC1)c1ccc2nc(-c3ccco3)c(-c3ccco3)nc2c1,18%
O=C(OCc1ccccc1)c1ccc(Br)o1,-7%
O=c1oc2ccccc2c(O)c1C=NCc1ccccn1,-10%
COc1ccc2[nH]cc(CCNc3ncncc3-c3ccc4c(c3)OCO4)c2c1,-4%
O=C(NC1=NCCS1)C1COc2ccccc2O1 (stereo not drawn),-9%
CCNC(=O)CN(Cc1ccccc1)S(=O)(=O)c1ccccc1,19%
NC(=O)c1ccc(-n2nnnc2Oc2ccccc2C(=O)N2CCOCC2)cc1,8%
COc1ccc(C(=O)N2CCC3(CC2)CN(C(=O)Nc2ccccc2)C3)cc1,32%
Cc1ccc(CSc2nnc(-c3ccccn3)n2C)cc1,31%
CCSc1nnc2c(n1)[nH]c1c(C)cccc12,-11%
COc1ccc2nc(NC(=O)CCNS(=O)(=O)c3ccc4c(c3)oc(=O)n4C)sc2c1,-14%
CCn1nc(C(=O)OCC(=O)NCCN2C(=O)CSC2=O)c2ccccc2c1=O,1%
COc1ccc(Cn2c(C3CC3)nc3ccc(NC(=O)c4ccco4)cc3c2=O)cc1,28%
O=C(Oc1ccc2ccccc2c1Cl)N1CCCC1,19%
S=c1[nH]nc(SCc2ccccc2Cl)c2[nH]cnc12,-8%[5.75 µM]
N#Cc1cccc(NC(=O)c2ccccc2C(=O)O)c1,-10%
Cc1noc(C)c1-c1nc(NCc2cccnc2)c2ccccc2n1,23%
COc1cccc(-c2cn3nc4c(nc3n2)CCCC4)c1,42%
COc1ccccc1N(CC(O)CN1C(=O)NC(C)(C)C1=O)S(=O)(=O)c1ccc(C)cc1 (stereo not drawn),74%
O=C(c1cccs1)N1CCN(CCc2ccccc2)CC1,10%
Cc1cc(=O)n2[nH]c(COc3ccccc3)nc2n1,10%
COCCNC(=O)CNS(=O)(=O)c1ccc2nc(C)sc2c1,5%
CCc1c(C)nc2ncnn2c1NCCc1ccc(OC)cc1,12%
COc1ccc(N2CCCn3c2nc2c3c(=O)n(Cc3ccc(F)cc3)c(=O)n2C)c(OC)c1,111%
CC1CCCCN1CCCn1c(=S)[nH]c2ccccc2c1=O (stereo not drawn),-16%
COC(=O)CN(c1cccc(OC)c1)S(C)(=O)=O,16%
O=C(CCCCCn1c(SCC(=O)c2ccccc2)nc2ccccc2c1=O)NCc1ccco1,2%
O=C(c1cc(C(F)(F)F)cc(C(F)(F)F)c1)N1CCC2(CC1)CN(c1ccccn1)C2,5%
COC(=O)c1cc(NC(=O)Cc2coc3cc(OC)ccc23)cc(C(=O)OC)c1,13%
CCCCCn1c(=O)[nH]c2cc(C(=O)NCCN(CC)CC)ccc2c1=O,17%
CC(C)NC[C@@H](O)COc1ccccc1-n1cccc1,55%
Cc1cccc(C(=O)N2CCC(n3nnc4cc(F)ccc43)CC2)c1,23%
O=C(C1CCN(S(=O)(=O)c2cccc3cccnc23)CC1)N1CCCC1,-2%
COc1ccc(OCc2ccc(C(=O)O)cc2)cc1,-10%
O=C1CCN(S(=O)(=O)c2ccccc2)C2CCCCC12 (stereo not drawn),12%
O=C(Cn1cc2c(n1)CCCCC2)NCc1ccccn1,11%
COc1ccc(-c2noc(CCCC(=O)NCc3ccco3)n2)cc1OC,31%
CCOC(=O)Cn1c(=N)n(Cc2ccccc2)c2ccccc21,-5%
C[C@H]1CC[C@@]2(NC1)O[C@@H]1C[C@H]3[C@@H]4CC[C@@H]5C[C@@H](O)CC[C@@]5(C)[C@@H]4CC[C@]3(C)[C@@H]1[C@@H]2C,-8%[12.8 µM]
O=C1CCCN1CCCNc1ncnc2c1cnn2-c1ccc(Cl)cc1,100%
O=c1c(-c2cc(F)cc(F)c2)nc2cnc(N3CCNCC3)nc2n1-c1ccccc1,59%
Cc1c(C(=O)OCC(=O)N(CCC#N)c2ccccc2)oc2c1ccc1ccccc12,35%
CCOC(=O)/C=C1\SCC(=O)N1CC(=O)c1ccc[nH]1,-6%
Cc1cc(OCC(=O)Nc2cc(-c3nn4c(C)nnc4s3)ccc2C)ccc1Cl,3%
CCOc1ccc(NC2=NCC(=O)N2CCc2ccccc2)cc1,34%
Cc1ccc(CNC(=O)C(C)OC(=O)c2ccco2)cc1 (stereo not drawn),13%
Cc1ccc(S(=O)(=O)c2c(N)n(NC(=O)C3CC3)c3nc4ccccc4nc23)cc1,5%
CCOC(=O)C1=C(C)NC(=O)N[C@@H]1c1coc2cc(C)cc(C)c2c1=O,7%[5.75 µM]
Cc1csc(/C(C#N)=N/O)n1,-12%
COc1ccc(C2C(C#N)=C(N)Oc3n[nH]c(-c4ccccn4)c32)c(OC)c1OC (stereo not drawn),-2%
CCCc1cc(=O)oc2cc(C)cc(OCC(=O)O)c12,11%
COC(=O)[C@@H]1C[C@H]1[C@@H](NC(=O)c1cc(C)on1)c1ccccc1,1%
CCOc1ccc(C(=O)c2ccncc2)cc1,3%
CCC(=O)Nc1cccc(NC(=O)CSc2nnnn2C2CCCC2)c1,-10%

Quoted from the results shown (2 entries):
compound,AmpC inh no det
CC1CCCCN1CCCn1c(=S)[nH]c2ccccc2c1=O (stereo not drawn),-16%
COC(=O)CN(c1cccc(OC)c1)S(C)(=O)=O,16%

Part of the list above in another layout.
O=C(CCCCCn1c(SCC(=O)c2ccccc2)nc2ccccc2c1=O)NCc1ccco1
- AmpC inh no det: 2%
O=C(c1cc(C(F)(F)F)cc(C(F)(F)F)c1)N1CCC2(CC1)CN(c1ccccn1)C2
- AmpC inh no det: 5%
COC(=O)c1cc(NC(=O)Cc2coc3cc(OC)ccc23)cc(C(=O)OC)c1
- AmpC inh no det: 13%
CCCCCn1c(=O)[nH]c2cc(C(=O)NCCN(CC)CC)ccc2c1=O
- AmpC inh no det: 17%

(next part)
compound,AmpC inh no det
CCSc1nnc(N2C(=O)CC(c3ccsc3)C3=C2CC(C)(C)CC3=O)s1 (stereo not drawn),47%
Cc1cc(S(=O)(=O)N2CCN(Cc3ccccc3)CC2)c(C)s1,31%
Cc1ccc(OCCCC(=O)N2CCOCC2)c(C)c1,31%
COc1ccc(C2(C(=O)Nc3ccc(C(=O)O)cc3)CCOCC2)cc1,-4%
Cc1noc(C)c1-c1cc(NCCN2CCOCC2)ncn1,7%
CCOC(=O)CN1C2=NCCN2c2ccccc21,-6%
O=C(NCc1ccccc1)C1CCCN1S(=O)(=O)c1cccc2cccnc12 (stereo not drawn),30%
CC(/C=N/n1cnnc1)=C\c1ccco1,-9%
COc1ccc(-n2nnnc2S(=O)(=O)CC(=O)N2CCCCC2)cc1,11%
O=C(CSc1ncccc1-c1nc2ccccc2[nH]1)NCc1ccco1,-5%
